Screens as filed in PubChem BioAssay.
Menin-MLL FL inh: menin-MLL binding inhibition, fluorescein peptide; Fluorescence polarization, fluorescein-MLL peptide displacement from menin; FP activity change, % at 61.4 µM; 290,000 tested, under 10 active; AID 1766; inconclusive = falling polarisation curve, or a change in total fluorescence; inactive = total fluorescence flat and polarisation flat or rising; no compound was filed as active; the % refers to the polarisation; negative = inhibition;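 note: % of control where 0% means no effect; inhibitors lower the polarisation; unlabelled MLL peptide was the positive control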
ClpP mod: qHTS Assay for Activators of ClpP; Potency, µM (highest dose often 57.5 µM), inactives show top-dose activity change, negative = active; purified B. subtilis ClpP, FRET peptide cleavage, 20 min; ATP-dependent Clp protease proteolytic subunit (Bacillus subtilis (strain 168)), P80244; actives 1.9% (n = 340,000); AID 651965, 2013; active = well fitted falling curve with a large enough effect; inconclusive = small, poorly fitted or top-dose-only effect; inactive = no such curve, though single readings can be large or run the other way; note: potency is the fitted concentration of half-maximal effect; the source files actives as falling curves though it sought activators and does not explain the sign; nearly all actives have a fitted effect of over 65% in size; many hits overshoot -100%
Target sequence (P80244 whole entry, looked up): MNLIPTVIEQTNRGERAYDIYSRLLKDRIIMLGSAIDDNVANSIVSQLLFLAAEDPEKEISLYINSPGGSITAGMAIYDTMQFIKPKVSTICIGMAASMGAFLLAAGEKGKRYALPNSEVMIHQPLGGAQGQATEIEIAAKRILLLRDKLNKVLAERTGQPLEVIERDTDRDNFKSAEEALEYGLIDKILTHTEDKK
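Purified B. subtilis ClpP, 10 microg/mL final in Tris/HCl pH8 with KCl, BSA, glycerol and Tween-20, cleaved an Abz/nitrotyrosine-quenched decapeptide. Fluorescence (ex 320, em 430) was read at 0 and 20 min at room temperature. Delta was normalized to 5.8 microM ADEP and DMSO/no-enzyme controls.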
TRPV1 potentiator: potentiators of human vanilloid receptor 1 (TRPV1); TRPV1-expressing cells, Fluo-8 calcium influx, capsaicin EC20 potentiation; host cell line not named in the record; control for the full effect not named in the record; potentiation, % at 8.33 µM; actives 0.02% (n = 320,000); AID 540277; active means potentiation above 80%; inconclusive means 30% to 80%; inactive means below 30%; note: 0% is about no effect
Target sequence (Q8NER1 whole entry, looked up): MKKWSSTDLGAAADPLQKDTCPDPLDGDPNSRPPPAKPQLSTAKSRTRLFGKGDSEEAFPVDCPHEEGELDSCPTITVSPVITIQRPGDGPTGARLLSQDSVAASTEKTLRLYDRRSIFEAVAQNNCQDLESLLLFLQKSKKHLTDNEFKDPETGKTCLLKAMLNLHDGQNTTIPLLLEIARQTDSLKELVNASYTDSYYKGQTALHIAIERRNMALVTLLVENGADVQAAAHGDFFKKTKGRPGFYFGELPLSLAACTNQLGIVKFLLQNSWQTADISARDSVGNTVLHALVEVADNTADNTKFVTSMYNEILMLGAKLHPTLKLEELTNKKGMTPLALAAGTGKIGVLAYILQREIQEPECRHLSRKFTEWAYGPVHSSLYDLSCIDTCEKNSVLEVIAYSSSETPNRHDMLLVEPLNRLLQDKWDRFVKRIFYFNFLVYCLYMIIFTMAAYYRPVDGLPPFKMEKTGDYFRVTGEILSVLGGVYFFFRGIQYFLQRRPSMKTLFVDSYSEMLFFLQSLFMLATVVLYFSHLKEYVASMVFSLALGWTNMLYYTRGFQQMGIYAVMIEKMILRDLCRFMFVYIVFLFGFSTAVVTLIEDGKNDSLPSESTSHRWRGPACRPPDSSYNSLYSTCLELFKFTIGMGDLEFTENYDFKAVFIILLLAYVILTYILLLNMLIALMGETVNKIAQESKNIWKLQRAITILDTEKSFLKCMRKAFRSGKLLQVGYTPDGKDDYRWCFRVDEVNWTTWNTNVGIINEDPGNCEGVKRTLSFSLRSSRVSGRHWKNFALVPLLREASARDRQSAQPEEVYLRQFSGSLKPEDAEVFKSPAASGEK
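TRPV1-expressing cells were cultured overnight at 35.5C and loaded with Fluo-8 calcium dye for 40 to 90 min at room temperature. After a 10 s baseline, compound was added and calcium influx was read kinetically for 3 min (ex 480/em 520 nm).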
Sfp PPTase inh: blocks B. subtilis Sfp PPTase activity | Biochemical Sfp PPTase activity, qHTS | Potency, µM, for the others: max response, negative = inhibition, most hits filed as inhibitors | actives 3.5% (n = 310,000) | AID 1490; active = well fitted inhibition curve with a large enough effect; inconclusive = small, poorly fitted or top-dose-only effect, or another doubt; inactive = no such curve, though single readings can be large or run the other way;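 note: the enzyme is Sfp with the accession as filed and its product quenches rhodamine fluorescence; potency is the fitted concentration of half-maximal effect; 0% = enzyme reaction without inhibitor and -100% = no enzyme wells; top concentration of the series not given in the record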
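Reaction rates are the 30-min fluorescence difference (ex 525, em 598 nm) in wells containing 15 nM Sfp, 5 uM rhodamine-CoA and 12.5 uM BHQ-2-YbbR at pH 7.6 with 10 mM MgCl2.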
TRPML1 inh: human mucolipin-1 channel inhibition. Q9GZU1. TRPML1-inducible cells, Ca2+ dye fluorescence, FDSS; stronger effect = lower value; inhibition of EC80 agonist-evoked calcium signal. activity change, negative = inhibition, % (test concentration not listed). actives 0.02% (n = 390,000); in the data active means activity change below about -50%; inconclusive means about -30% to -50%; inactive means above about -30%;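 note: stimulus is agonist 54-4 at its EC80 concentration; % is set by controls: 0 for no effect and ±100 for the full control effect; compound concentration not given in the record; the text of the record puts the active cut at -80%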
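TRPML1-DL cells, Tet-induced overnight (~16 h, 37 °C) at 1,500 cells/well, were loaded with Ca8 no-wash dye plus quencher for 45-90 min at room temperature. Compounds were pinned during FDSS kinetic reading; agonist 54-4 at EC80 (4 uM final) then added.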
gsp antag: antagonists of gsp mutant (McCune-Albright syndrome); Potency, µM (titrated, usually from 76.9 µM), without a hit: top-dose activity change, negative = inhibition, most hits filed as inhibitors; actives 0.4% (n = 340,000); gsp-mutant cells, cAMP HTRF, 30 min; control for the full effect not named in the record; active = falling curve of any shape with a large fitted effect; inconclusive = falling curve, mostly with a smaller effect; inactive = flat or rising curve; cell line not stated here;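 note: intracellular cAMP measured with PDE inhibitor Ro 20-1724 present during compound exposure; potency is the fitted concentration of half-maximal effect; % is set by controls: 0 for no effect and ±100 for the full control effect; nearly all actives have a fitted effect of over 65% in size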
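Measurement of cellular cAMP by homogeneous time-resolved fluorescence following a 30 min compound exposure at 37C. The PDE inhibitor […] was present throughout; the assay buffer was DPBS with 0.05% BSA and 0.005% Tween 20.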
gsp ag: agonists of gsp mutant (McCune-Albright syndrome). gsp mutant cells, cAMP HTRF, 30 min; control for the full effect not named in the record. Potency, µM (top dose mostly 76.9 µM), without a hit: top-dose activation (cAMP increase), hits mostly activators. actives 0.13% (n = 340,000). AID 624287; active = well fitted activation curve with a large enough effect; inconclusive = small, poorly fitted or top-dose-only effect, or another doubt; inactive = no such curve, though single readings can be large or run the other way; cell line not stated here;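 note: phosphodiesterase inhibitor Ro 20-1724 added with compounds to block cAMP breakdown; potency is the fitted concentration of half-maximal effect; nearly all actives have a fitted effect of over 60% in size; about a fifth of the inactives were tested at one dose only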
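Cells stably selected in G418 were plated at 2000/well, grown 16-24 hr, then given compounds in DMSO with the PDE inhibitor […] (300 uM solution added) for 30 min at 37C; cAMP was read by HTRF.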
Active calls of the source: *; [ ] = dose if it differs, or a comment.

Screening COc1ccccc1C1=NOC(Cn2c(NCC3CCCO3)nc3c2c(=O)n(C)c(=O)n3C)C1 (centres undefined) returned Menin-MLL FL inh -2.4, ClpP mod -0.5%, TRPV1 potentiator -3, Sfp PPTase inh 18%, TRPML1 inh -2, gsp antag -5% and gsp ag -5%[15.4 µM].
`COc1ccc(CN2CCNC(=O)C2CC(=O)N(C)CCC2CCOCC2)cc1OC` (centres undefined) gave ClpP mod -1.9%, TRPV1 potentiator 18, Sfp PPTase inh 15%, TRPML1 inh -25, gsp antag 9% and gsp ag inconclusive.
Screening Cc1cccc(C(=O)OCC(=O)NC(C)CCc2ccccc2)c1 (centres undefined) returned Menin-MLL FL inh -0.8, ClpP mod 7.8%, TRPV1 potentiator -13, Sfp PPTase inh 15%, TRPML1 inh -13, gsp antag 7% and gsp ag -3%[15.4 µM].
For O=C(COC(=O)c1cc(Cl)ccc1Cl)Nc1ccc2[nH]c(=O)[nH]c2c1 the results were TRPV1 potentiator -2, TRPML1 inh -18, gsp antag 7% and gsp ag -9%[15.4 µM].
`COc1cc(C2(O)CCCCC2C)cc(OC)c1OC` (centres undefined) gave Menin-MLL FL inh -2.6, ClpP mod 1.6%, TRPV1 potentiator 0, Sfp PPTase inh 8%, TRPML1 inh 2, gsp antag 8% and gsp ag -43%[inhibitor].
Screening COCCn1c(SCC(=O)Nc2ccc3c(c2)CCC3)nc2ccccc2c1=O returned Menin-MLL FL inh 5.5, ClpP mod -2.3%, TRPV1 potentiator 1, Sfp PPTase inh -15%, TRPML1 inh -13, gsp antag -2% and gsp ag inconclusive.
For COc1ccc(C(=O)NCC(c2cccs2)N2CCOCC2)cc1OC (centres undefined) the results were ClpP mod 0.4%, TRPV1 potentiator 14, TRPML1 inh 19, gsp antag 0% and gsp ag 23%.
`CSc1ccccc1OC1CCN(Cc2ccccc2)CC1` gave Menin-MLL FL inh -4.4, ClpP mod -0.4%, TRPV1 potentiator 1, Sfp PPTase inh inconclusive, TRPML1 inh -3, gsp antag -15% and gsp ag 26%[15.4 µM].
`O=c1c2ccccc2nc(SCc2ccc(F)cc2Cl)n1CCCN1CCOCC1` gave Menin-MLL FL inh -0.4, ClpP mod -1.0%, TRPV1 potentiator -7, Sfp PPTase inh inconclusive, TRPML1 inh 47, gsp antag -8% and gsp ag 13%.
`CC(C)(C)c1cc(C(=O)NNC(=O)Nc2cccc(Cl)c2)n(Cc2ccccc2)n1` gave Menin-MLL FL inh -1.8, Sfp PPTase inh 17%, TRPML1 inh 3, gsp antag -35% and gsp ag 0%.
Screening O=c1c2ccc([N+](=O)[O-])cc2ncn1CCOc1cccc(Br)c1 returned Menin-MLL FL inh 6.2, TRPV1 potentiator 6, Sfp PPTase inh -10%, TRPML1 inh -8, gsp antag inconclusive and gsp ag 9%.
`CN(C)c1nc(-c2ccccn2)nnc1-c1ccccc1` gave Menin-MLL FL inh -2.4, ClpP mod -0.9%, TRPV1 potentiator -7, Sfp PPTase inh 79µM*, TRPML1 inh 11, gsp antag -11% and gsp ag 9%.
`COC(=O)CSc1cc([N+](=O)[O-])ccc1NC(=O)OC` gave Menin-MLL FL inh -1.6, TRPV1 potentiator -5, Sfp PPTase inh -9%, TRPML1 inh -5 and gsp ag -3%[15.4 µM].
Screening COc1cc(Br)ccc1C1CC(=O)C(C)C(c2ccc(Br)cc2OC)N1 (centres undefined) returned Menin-MLL FL inh 5.7, ClpP mod 0.5%, TRPV1 potentiator -6, Sfp PPTase inh -5%, TRPML1 inh -3, gsp antag inconclusive and gsp ag -34%[inhibitor].
Cn1ncc(Cl)c1C(=O)NC(=S)Nc1sc2c(c1C#N)CCCCC2 was read as Menin-MLL FL inh 2.1, ClpP mod -1.5%, TRPV1 potentiator -1, Sfp PPTase inh inconclusive, TRPML1 inh -1, gsp antag -4% and gsp ag 24%.
`O=C(O)c1ccccc1C(=O)N1CCN(C(=O)c2ccccc2Cl)CC1` gave Menin-MLL FL inh 0.4, TRPV1 potentiator -23, Sfp PPTase inh -7%, TRPML1 inh 7, gsp antag 7% and gsp ag 1%[15.4 µM].
`CCn1cc(S(=O)(=O)c2ccc(OC)cc2)c(=O)c2cc(OC)ccc21` gave Menin-MLL FL inh 0.9, ClpP mod 3.4%, TRPV1 potentiator 5, Sfp PPTase inh 22%, TRPML1 inh 7, gsp antag 5% and gsp ag 5%.
`Cc1cc(C)nc(N2CCCC(C(=O)Nc3nnc(C(C)C)s3)C2)n1` (centres undefined) gave Menin-MLL FL inh -0.7, TRPV1 potentiator 7 and Sfp PPTase inh 16%.
Screening OC(CNCCc1ccccc1)COc1ccc(OCC(O)CNCCc2ccccc2)cc1 (centres undefined) returned Menin-MLL FL inh -2.2, TRPV1 potentiator inconclusive, Sfp PPTase inh -4%, TRPML1 inh -10, gsp antag 3% and gsp ag 5%.
For CC1CCc2nc3ccc(S(=O)(=O)N4CCC(C(=O)NC5CCCC5)CC4)cc3c(C(=O)O)c2C1 (centres undefined) the results were Menin-MLL FL inh inconclusive, ClpP mod -2.4%, TRPV1 potentiator 0, Sfp PPTase inh -5%, TRPML1 inh -5, gsp antag 2% and gsp ag 21%.

Compounds from the list above that have a nitro group on carbon (two):
Screening O=c1c2ccc([N+](=O)[O-])cc2ncn1CCOc1cccc(Br)c1 returned Menin-MLL FL inh 6.2, TRPV1 potentiator 6, Sfp PPTase inh -10%, TRPML1 inh -8, gsp antag inconclusive and gsp ag 9%.
`COC(=O)CSc1cc([N+](=O)[O-])ccc1NC(=O)OC` gave Menin-MLL FL inh -1.6, TRPV1 potentiator -5, Sfp PPTase inh -9%, TRPML1 inh -5 and gsp ag -3%[15.4 µM].

Carrying on.
For CCN1C(=O)[C@H]2[C@H]3CN=C(SC)N3[C@@](C)(C(=O)OC)[C@H]2C1=O the results were ClpP mod -1.0%, TRPML1 inh -8 and gsp antag 5%.
Screening Cc1ccc2cc(CN(CC3CCCO3)C(=O)Nc3ccccc3F)c3nnnn3c2c1 (centres undefined) returned Menin-MLL FL inh -2.6, TRPV1 potentiator -7, Sfp PPTase inh 25%, TRPML1 inh -6, gsp antag 5% and gsp ag -10%[15.4 µM].
For CCCCOC(=O)n1c(SCC(=O)N(C)C)nc2ccccc21 the results were Menin-MLL FL inh 0.0, ClpP mod -0.3%, TRPV1 potentiator -23, Sfp PPTase inh 2%, TRPML1 inh -7, gsp antag 0% and gsp ag -11%.
For CSc1sc(C(=O)NCC2CC2)c2c1S(=O)(=O)N(C)c1ccccc1-2 the results were Menin-MLL FL inh 0.0, TRPV1 potentiator 0, Sfp PPTase inh 12%, TRPML1 inh -22, gsp antag inconclusive and gsp ag inconclusive.
`COc1cccc(NC(=O)C(Sc2nnnn2C)c2ccccc2)c1` (centres undefined) gave Menin-MLL FL inh 6.9, ClpP mod 1.1%, TRPV1 potentiator inconclusive, Sfp PPTase inh 12%, TRPML1 inh 3, gsp antag -28% and gsp ag 10%.
`COc1ccc(S(=O)(=O)N(C)C[C@H]2OCc3cn(nn3)CCCC(=O)N([C@H](C)CO)C[C@@H]2C)cc1` gave ClpP mod 1.9%, TRPML1 inh -12 and gsp ag -57%[inhibitor].
`Cc1cccc2sc(N(CCCN(C)C)C(=O)c3nc4ccccc4s3)nc12` gave Menin-MLL FL inh 2.8, ClpP mod inconclusive, TRPV1 potentiator -10, Sfp PPTase inh 79µM*, TRPML1 inh 6, gsp antag 0% and gsp ag inconclusive.
CC(=O)c1ccc(NC(=O)CCS(=O)(=O)c2ccc3c(c2)n(C)c(=O)c(=O)n3C)cc1 was read as Menin-MLL FL inh 0.9, ClpP mod -4.2%, TRPV1 potentiator -13, Sfp PPTase inh 18%, TRPML1 inh -11, gsp antag 6% and gsp ag inconclusive.
Screening O=C(NC1CCCN(Cc2ccc(Cl)cc2)C1)c1ccccc1C(F)(F)F (centres undefined) returned Menin-MLL FL inh 8.6, TRPV1 potentiator 8, Sfp PPTase inh -2%, TRPML1 inh -6, gsp antag -9% and gsp ag -25%.
For CC(CC(=O)Nc1cccc(F)c1)S(=O)(=O)c1ccc2c(c1)NC(=O)CO2 (centres undefined) the results were Menin-MLL FL inh -2.4, ClpP mod -0.2%, TRPV1 potentiator -1, Sfp PPTase inh 6%, TRPML1 inh 0, gsp antag 10% and gsp ag inconclusive.
`Cc1ccc(NC2CCCN(C(=O)c3ccoc3)C2)cc1C` (centres undefined) gave Menin-MLL FL inh -0.1, ClpP mod -3.5%, TRPV1 potentiator -3, Sfp PPTase inh -1%, TRPML1 inh 26, gsp antag -3% and gsp ag 23%.
`NC(=O)c1nn(CC(=O)Nc2cccc(S(=O)(=O)N3CCCCCC3)c2)c(=O)c2ccccc12` gave ClpP mod 0.2%, TRPV1 potentiator -7, TRPML1 inh 10, gsp antag -8% and gsp ag 18%.
`C=CCc1cc(C)ccc1OCCn1ccnc1` gave Menin-MLL FL inh -2.4, ClpP mod -1.1%, TRPV1 potentiator 10, Sfp PPTase inh -18%, TRPML1 inh -13, gsp antag -22% and gsp ag -2%.
For Cc1ccc(OCC(O)CNCc2ccc(F)cc2)cc1 (centres undefined) the results were Menin-MLL FL inh -8.7, TRPV1 potentiator 4, Sfp PPTase inh 10%, TRPML1 inh 18, gsp antag 2% and gsp ag -10%.
Screening O=C(/C=C/c1ccccc1)Oc1ccccc1C(=S)N1CCOCC1 returned Menin-MLL FL inh -1.0, ClpP mod 0.5%, TRPV1 potentiator -12, Sfp PPTase inh -6%, TRPML1 inh 16, gsp antag -16% and gsp ag -2%.
Screening O=C(Nc1nccs1)C1CC(=O)N(c2ccc(Cl)cc2)C1 (centres undefined) returned Menin-MLL FL inh 3.6, ClpP mod 1.5%, TRPV1 potentiator 1, Sfp PPTase inh 14%, TRPML1 inh 3, gsp antag -1% and gsp ag 25%.
`Cc1ccc(NC(=S)NC2CCSc3ccccc32)cc1` (centres undefined) gave Menin-MLL FL inh 1.5, TRPV1 potentiator -5, Sfp PPTase inh 19%, TRPML1 inh 28, gsp antag -7% and gsp ag -7%.
